# Screens deposited in PubChem BioAssay by Broad Institute.
# YB-1 expression: YB-1 expression inhibition. U2OS, qRT-PCR YB-1 vs CDIP delta delta Cp, 16 h; hits give high values; zero = DMSO, each unit about twofold. delta delta Cp (YB-1 minus CDIP) (concentration not given with the values). hit rate 0.37% among 30,000. AID 434959;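 active = delta delta Cp rounded down to an integer at or above 3, about 3 SD of DMSO wells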;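 note: higher means less YB-1 transcript or more CDIP transcript relative to DMSO; stock transfer was 100 nL into about 100 µL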
# Active calls of the source: *. Not all compounds are listed, so the mix of outcomes need not match the whole.
# Sample of the layout, three compounds:
SMILES,YB-1 expression
COc1ccc(C#Cc2ccc3c(c2)[C@]2(C(=O)N3)[C@H](C(=O)O)[C@H]3C(=O)O[C@H](c4ccccc4)[C@H](c4ccccc4)N3[C@@H]2c2ccc(O)cc2)cc1,0.35
C[C@H](CO)N1C[C@H](C)[C@H](CN(C)S(=O)(=O)c2cn(C)cn2)OCc2cnnn2CCCC1=O,0.25
O=C(N/N=C/c1c(O)cc(O)cc1O)c1ccccn1,0.38

# Main list, from the start:
SMILES,YB-1 expression
COc1ccc(C#Cc2ccc3c(c2)[C@]2(C(=O)N3)[C@H](C(=O)O)[C@H]3C(=O)O[C@H](c4ccccc4)[C@H](c4ccccc4)N3[C@@H]2c2ccc(O)cc2)cc1,0.35
C[C@H](CO)N1C[C@H](C)[C@H](CN(C)S(=O)(=O)c2cn(C)cn2)OCc2cnnn2CCCC1=O,0.25
O=C(N/N=C/c1c(O)cc(O)cc1O)c1ccccn1,0.38
COc1cccc(CN(C)C[C@H]2OCc3cn(nn3)CCCC(=O)N([C@H](C)CO)C[C@@H]2C)c1,0.17
CC1(C)[C@H]2CC=C(/C=N\NC(=O)c3cccc(C(=O)NO)c3)[C@@H]1C2,-0.24
CC(C)NC(=O)N(C)C[C@@H]1Oc2ncc(C#Cc3cccc(F)c3)cc2C(=O)N([C@H](C)CO)C[C@@H]1C,0.18
C[C@H]1CN([C@@H](C)CO)C(=O)CCCn2nncc2CO[C@H]1CN(C)C(=O)Nc1ccc2c(c1)OCCO2,0.043
O=C(N/N=C/c1ccc(O)cc1O)c1ccccc1O,0.56
NC(=O)NCC#Cc1ccc2c(c1)[C@]1(C(=O)N2)[C@H](c2ccccc2OCCO)N2[C@H](c3ccccc3)[C@H](c3ccccc3)OC(=O)[C@H]2[C@@H]1C(N)=O,-0.12
Cc1[nH]cnc1/C=N/NC(=O)c1ccccc1O,-0.19
COc1cc2c(cc1OC)CN(C(=O)[C@H]1[C@@H]3C(=O)O[C@@H](c4ccccc4)[C@@H](c4ccccc4)N3[C@@H](c3ccccc3OCCO)[C@]13C(=O)Nc1ccccc13)CC2,-0.034
COCCOC(=O)N1C(=O)[C@@]2(c3cc(C#CCNC(N)=O)ccc31)[C@H](C(=O)N1CCN(c3ncccn3)CC1)[C@H]1C(=O)O[C@H](c3ccccc3)[C@H](c3ccccc3)N1[C@@H]2c1ccccc1OCCO,0.35
O=C(O)CCCCCCC(=O)N/N=C/c1ccccc1O,-0.12
C[C@H](CO)N1C[C@H](C)[C@H](CN(C)Cc2ccncc2)Oc2ncc(C#Cc3ccc(F)cc3)cc2C1=O,0.084
C[C@H](CO)N1C[C@H](C)[C@H](CN(C)Cc2cccc(C(F)(F)F)c2)Oc2ncc(-c3ccccc3)cc2C1=O,0.22
C[C@H](CO)N1C[C@H](C)[C@H](CN(C)S(=O)(=O)c2cccs2)Oc2ncc(C#CC(C)(C)O)cc2C1=O,9.9*
COCCOC(=O)N1C(=O)[C@@]2(c3ccccc31)[C@H](c1ccccc1OCCO)N1[C@H](c3ccccc3)[C@H](c3ccccc3)OC(=O)[C@H]1[C@@H]2C(=O)N1CCc2cc(OC)c(OC)cc2C1,0.23
COc1ccc([Si](C)(C)[C@@H]2[C@@H](CCO)O[C@]3(C(=O)N(Cc4cccc(NC(C)=O)c4)c4ccccc43)[C@H]2C)cc1,-0.07
COCCOC(=O)N1C(=O)[C@@]2(c3cc(C#CCCO)ccc31)[C@H](c1ccccc1OCCO)N1[C@H](c3ccccc3)[C@H](c3ccccc3)OC(=O)[C@H]1[C@@H]2C(=O)NC[C@H](O)c1ccccc1,0.35
CC(C)C[C@@H]1NC(=O)[C@@H]2C[C@H](C(=O)NCc3ccc(F)cc3)[C@H](c3ccc(O)cc3)N2C1=O,0.063

# A second format for part of the listing above:
C[C@H]1CN([C@@H](C)CO)C(=O)CCCn2nncc2CO[C@H]1CN(C)C(=O)Nc1ccc2c(c1)OCCO2
  YB-1 expression: 0.043

COc1cc2c(cc1OC)CN(C(=O)[C@H]1[C@@H]3C(=O)O[C@@H](c4ccccc4)[C@@H](c4ccccc4)N3[C@@H](c3ccccc3OCCO)[C@]13C(=O)Nc1ccccc13)CC2
  YB-1 expression: -0.034

CC(C)NC(=O)N(C)C[C@@H]1Oc2ncc(C#Cc3cccc(F)c3)cc2C(=O)N([C@H](C)CO)C[C@@H]1C
  YB-1 expression: 0.18

COc1cccc(CN(C)C[C@H]2OCc3cn(nn3)CCCC(=O)N([C@H](C)CO)C[C@@H]2C)c1
  YB-1 expression: 0.17

# Continuation.
SMILES,YB-1 expression
C=CCNC(=O)[C@H]1[C@@H]2C(=O)O[C@@H](c3ccccc3)[C@@H](c3ccccc3)N2[C@@H](c2ccc(O)cc2)[C@]12C(=O)N(C(=O)OCCOC)c1ccc(C#CC3=CCCCC3)cc12,-0.02
C[C@H](CO)N1C[C@H](C)[C@H](CN(C)S(=O)(=O)c2cccs2)Oc2ncc(C#Cc3ccccc3)cc2C1=O,0.029
C=CCNC(=O)[C@@H]1[C@H]2C(=O)O[C@H](c3ccccc3)[C@H](c3ccccc3)N2[C@H](c2ccc(O)cc2)[C@@]12C(=O)N(C(=O)OCCOC)c1ccc(C#Cc3ccc(OC)cc3)cc12,0.13
O=C(N/N=C/c1ccc(O)c(F)c1)c1ccccc1O,0.041
COC(=O)CCCCCCC(=O)N/N=C/c1cccc(C(=O)O)c1,-0.29
CO[C@H]1O[C@H](CO)[C@@H](OC(=O)Nc2ccc3c(c2)OCO3)[C@H](OC(=O)Nc2ccccc2)[C@@H]1OC(=O)Nc1ccccc1,-0.024
C[C@@H]1CN([C@H](C)CO)C(=O)CCCn2cc(nn2)CO[C@@H]1CN(C)Cc1ccc(Oc2ccccc2)cc1,0.04
C[C@H](CO)N1C[C@H](C)[C@@H](CN(C)Cc2ccc3cccnc3c2)OCc2cn(nn2)CCCC1=O,-0.29
C[C@H](CO)N1C[C@H](C)[C@H](CN(C)Cc2ccc(C(F)(F)F)cc2)OCc2cn(nn2)CCCC1=O,0.15
C[C@H](CO)N1C[C@H](C)[C@@H](CN(C)C(=O)CCC(F)(F)F)OCc2cnnn2CCCC1=O,0.036
COc1ccc(-c2cnc3c(c2)C(=O)N([C@H](C)CO)C[C@H](C)[C@H](CN(C)S(=O)(=O)c2ccc(F)cc2)O3)cc1,0.036
Cc1ccc(S(=O)(=O)N(C)C[C@H]2OCc3cnnn3CCCC(=O)N([C@H](C)CO)C[C@H]2C)cc1,-0.49
C[C@H](CO)N1C[C@H](C)[C@H](CN(C)C)Oc2ncc(C#Cc3ccccc3)cc2C1=O,0.38
O=C(N[C@H]1c2ccccc2C[C@H]1O)C1=C[C@H](c2coc3ccccc3c2=O)C[C@H](OCCCCO)O1,0.16
COc1cc2c(cc1OC)CN(C(=O)[C@@H]1[C@H]3C(=O)O[C@H](c4ccccc4)[C@H](c4ccccc4)N3[C@H](c3ccc(O)cc3)[C@@]13C(=O)Nc1ccccc13)CC2,0.26
COC(=O)CCCCCCC(=O)N/N=C/[C@H](O)[C@@H](O)[C@@H](O)[C@H](O)CO,-0.17
C[C@H]1CN([C@@H](C)CO)C(=O)CCCn2nncc2CO[C@H]1CN(C)S(=O)(=O)c1cccc(C#N)c1,0.22
C[C@H](CO)N1C[C@H](C)[C@@H](CN(C)C(=O)Oc2ccccc2)OCc2cn(nn2)CCCC1=O,0.081
C[C@@H]1CN([C@H](C)CO)C(=O)CCCn2nncc2CO[C@@H]1CN(C)C(=O)Nc1ccc2c(c1)OCO2,0.31
COc1ccc([Si](C)(C)[C@H]2[C@H](CCO)O[C@@]3(C(=O)N(Cc4ccccc4)c4ccc(NC(C)=O)cc43)[C@@H]2C)cc1,-0.027
C[C@@H]1CN([C@@H](C)CO)C(=O)CCCn2cc(nn2)CO[C@@H]1CN(C)S(=O)(=O)c1ccc2c(c1)OCCCO2,0.18
COc1cc(Br)c(/C=N/NC(=O)c2ccccc2O)cc1OC,-0.16
O=C1N(CCS(=O)(=O)c2ccccc2)Cc2ccccc2[C@H]2OC(c3ccc(OCCCO)cc3)=N[C@@]12CCS(=O)(=O)c1ccccc1,0.52
Cc1ccccc1CN(C)C[C@H]1OCc2cnnn2CCCC(=O)N([C@H](C)CO)C[C@H]1C,-0.00072
COC(=O)CCCCCCC(=O)N/N=C/c1cc(OC)c(OC)cc1[N+](=O)[O-],-0.28
C[C@@H]1CN([C@H](C)CO)C(=O)c2cc(NC(=O)CCCCCC(=O)Nc3ccccc3N)ccc2O[C@@H]1CN(C)Cc1ccc(Cl)c(Cl)c1,-0.21
COc1ccc(-c2cnc3c(c2)C(=O)N([C@H](C)CO)C[C@H](C)[C@H](CN(C)S(=O)(=O)c2cn(C)cn2)O3)cc1,-0.0092
COc1ccccc1NC(=O)N(C)C[C@@H]1OCc2cn(nn2)CCCC(=O)N([C@H](C)CO)C[C@H]1C,0.02
O=S(=O)(N[C@H]1CCN(Cc2cccc(OCCO)c2)C1)c1ccc2ccccc2c1,-0.01
C[C@H](CO)N1C[C@H](C)[C@H](CN(C)Cc2ccc3c(c2)OCCN3C)OCc2cn(nn2)CCCC1=O,0.2
COc1ccc(NC(=O)O[C@@H](c2ccc(OCCO)cc2)[C@@H](C)CCO)cc1,-0.12
C[C@H](CO)N1C[C@H](C)[C@@H](CN(C)C(=O)Cc2ccccc2)OCc2cn(nn2)CCCC1=O,-0.22
C[C@H](CO)N1C[C@H](C)[C@H](CN(C)Cc2ccccc2)Oc2ncc(-c3cccc(C(F)(F)F)c3)cc2C1=O,0.14
COc1cccc(NC(=O)N(C)C[C@H]2OCc3cn(nn3)CCCC(=O)N([C@H](C)CO)C[C@H]2C)c1,-0.24
COc1ccc(NC(=O)N(C)C[C@@H]2OCc3cn(nn3)CCCC(=O)N([C@@H](C)CO)C[C@@H]2C)c(OC)c1,-0.21
C[C@H](CO)N1C[C@H](C)[C@H](CN(C)S(=O)(=O)c2cccs2)Oc2ncc(C#Cc3ccc(F)cc3)cc2C1=O,0.011
C=CCC/C=N/NC(=O)CCCCCCC(=O)Nc1ccccc1O,-0.061
O=C(O)CCCCCCC(=O)N/N=C/c1cc(Br)cc(Br)c1O,0.3
O=C(NCC(O)CO)[C@]1(CCS(=O)(=O)c2ccccc2)N=C(c2ccc(OCCCO)cc2)O[C@@H]1c1ccccc1 (stereo partly specified),0.55
C=CCN1C(=O)[C@]2(O[C@H](CCn3cc([C@H](O)c4ccccc4)nn3)[C@@H]([Si](C)(C)c3ccc(OC)cc3)[C@@H]2C)c2cc(N3CCOC3=O)ccc21,0.17
C[C@@H]1CN([C@@H](C)CO)C(=O)CCCn2nncc2CO[C@H]1CN(C)C(=O)Nc1ccccc1,-0.16
C[C@H]1CN([C@@H](C)CO)C(=O)CCCn2cc(nn2)CO[C@H]1CN(C)C(=O)Nc1ccccc1F,0.1
CNC[C@H]1OCc2cnnn2CCCC(=O)N([C@H](C)CO)C[C@H]1C,-0.2
COC(=O)[C@@]1(Cc2ccccc2CN=[N+]=[N-])N=C(c2ccc(OCCCO)cc2)O[C@H]1c1ccccc1,-0.31
C[C@@H]1CN([C@@H](C)CO)C(=O)CCCn2nncc2CO[C@H]1CN(C)CC1CCCCC1,0.14
O=C(c1ccccc1)N1Cc2ccccc2[C@@H]2OC(c3ccc(OCCCO)cc3)=N[C@]2(CCS(=O)(=O)c2ccccc2)C1=O,-0.48
COc1cccc(S(=O)(=O)N(C)C[C@@H]2Oc3ncc(-c4ccc(F)cc4)cc3C(=O)N([C@H](C)CO)C[C@@H]2C)c1,0.42
COC(=O)CCCCCCC(=O)N/N=C/[C@@H]1CCCN1C(=O)OC(C)(C)C,-0.37
Cn1cc(/C=N\NC(=O)c2ccccc2O)c2ccccc21,-0.012
CC(C)(C)OC(=O)NC1(/C=N/NC(=O)c2ccccc2O)CCCC1,-0.1
C[C@@H]1CN([C@H](C)CO)C(=O)CCCn2cc(nn2)CO[C@H]1CN(C)S(=O)(=O)c1ccc(-c2ccccc2)cc1,0.078
COC(=O)CCCCCCC(=O)N/N=C/c1ccc(OC)c(OC)c1,-0.15
O=C(N/N=C/c1ccc(O)cc1)c1ccccc1O,0.21
C[C@@H]1CN([C@@H](C)CO)C(=O)CCCn2nncc2CO[C@@H]1CN(C)C(=O)Nc1ccccc1C(F)(F)F,0.086
C[C@H](CO)N1C[C@H](C)[C@H](CN(C)C(=O)Nc2ccc(F)cc2)Oc2ncc(C#Cc3ccccc3)cc2C1=O,0.051
CCCC(O)C#Cc1cnc2c(c1)C(=O)N([C@H](C)CO)C[C@H](C)[C@H](CN(C)C(=O)NC(C)C)O2 (stereo partly specified),-0.14
COc1cc(/C=N/NC(=O)c2cccc(C(=O)NO)c2)c(Br)cc1O,0.05
COc1cccc(-c2cnc3c(c2)C(=O)N([C@H](C)CO)C[C@H](C)[C@H](CN(C)S(C)(=O)=O)O3)c1,-0.23
C[C@H](CO)N1C[C@H](C)[C@H](CN(C)S(=O)(=O)c2cn(C)cn2)Oc2ncc(C#Cc3ccccc3)cc2C1=O,0.085
C[C@H]1CN([C@@H](C)CO)C(=O)CCCn2cc(nn2)CO[C@@H]1CN(C)Cc1cccc(C(=O)O)c1,-0.31
# Continued.
SMILES,YB-1 expression
O=C(O)C1=C[C@H](c2ccc3c(c2)OCO3)C[C@H](OCc2ccc(CO)cc2)O1,-0.26
O=C(NO)c1cccc(C(=O)N/N=C/c2c(F)c(F)c(F)c(F)c2F)c1,0.02
O=C1O[C@H](c2ccccc2)[C@H](c2ccccc2)N2[C@H]1[C@@H](C(=O)O)[C@]1(C(=O)Nc3ccc(C#CC4(O)CCCCCC4)cc31)[C@H]2c1ccc(OCCO)cc1,0.0048
C=CCOc1ccccc1/C=N/NC(=O)CCCCCCC(=O)Nc1ccccc1O,0.16
